Bioassay records: PubChem, National Center for Advancing Translational Sciences (NCATS)
Vaccinia mCherry – vaccinia inhibition (mCherry reporter); Vaccinia virus mCherry reporter infection, fluorescence; about a quarter of the inactives have no number; Potency, µM (top dose mostly 36.5 µM), without a hit: top-dose activity change, negative = inhibition, hits mostly inhibitors; actives 0.63% (n = 310,000); AID 720579; active = well fitted inhibition curve with a large enough effect; inconclusive = small, poorly fitted or top-dose-only effect; inactive = no such curve, though single readings can be large or run the other way; tested in A549 cells; further: nearly all actives have a fitted effect of over 35% in size; inactives centre near -10
VACV Venus inh – vaccinia inhibition (Venus reporter); AID 720580; Potency, µM (doses to about 36.5 µM), for the others: at the highest dose activity change, negative = inhibition, hits mostly inhibitors; actives 0.46% (n = 330,000); Vaccinia virus Venus reporter expression, fluorescence; active means well fitted inhibition curve with a large enough effect; inconclusive means small, poorly fitted or top-dose-only effect; inactive means no such curve, though single readings can be large or run the other way; tested in A549 cells; further: nearly all actives have a fitted effect of over 30% in size; inactives centre near -10
* hit, by the source's call; i = inactive; ? = inconclusive; . = not tested or not shown; & = joins results of further samples; [ ] = remark or other dose. On the % scale 0 is the no-effect control and ±100 the full control effect; potency means the concentration at half of the fitted maximal effect. Outcome played no part in choosing rows. Share with any hit: about 0.82%.

structure | Vaccinia mCherry | VACV Venus inh
O=C(O)CC1(CC(=O)NCc2ccc(-c3cccs3)cc2)CCCCC1 | -14% | -10%
OC(COc1ccc(C2C=CCC2)cc1)CN1CCCCC1 (stereo unspecified) | -22% | -9%
COc1ccc(N=C2CCS(=O)(=O)c3sccc32)cc1 | -22% | -11%
COc1ccc(C(=O)Nc2ccccc2C(=O)NCCN2CCOCC2)cc1 | -13% | -5%
O=C(c1ccc2c(Cl)c3c(nc2c1)CCCC3)N1CCN(c2ccccc2)CC1 | -23% | -20%
COc1ccc(-c2cc(C(F)(F)F)c(C#N)c(SCC(=O)O)n2)cc1 | 8% | 6%
Cc1ccc(C)c(OCCCC(=O)NC2CCCCC2)c1 | i | -10%
Cc1cc(C)n(CCc2nc(-c3cccs3)cs2)n1 | . | -25%
CCS(=O)(=O)c1ccc(O)c(NC(=O)COc2ccccc2)c1 | -13% | -15%
COc1ccc(NC(=O)N(Cc2cc3cc(OC)c(OC)cc3[nH]c2=O)CC2CCCO2)cc1 (stereo unspecified) | -8% | -14%
Cc1ccc2c(c1)Oc1ccccc1C=C2C(=O)O | 3% | 3%
Cc1c(C)n(CCC#N)c2ccccc12 | -21% | -3%
COc1ccc(C(=O)N(Cc2ccco2)Cc2cccs2)c(OC)c1 | -27% | -19%
CC(NC(=O)CSc1nc(=O)cc(N)n1CCc1ccccc1)c1ccccc1 (stereo unspecified) | -10% | -2%
CCN(CC(=O)Nc1ccccc1C(F)(F)F)C(=O)C1CC(=O)N(Cc2ccccc2)C1 (stereo unspecified) | -16% | -6%
O=C1Nc2ccccc2Oc2cc(Oc3ccc(Cl)cc3)ccc21 | -13% | -1%
Cc1ccc(CNC(=O)COC(=O)c2cc3c(s2)CCC(C)C3)cc1 (stereo unspecified) | -12% | -9%
CC(C)C(=O)Nc1ccc(C(=O)CSc2nnc(C3CC3)n2C2CC2)cc1 | i | -16%
Cc1ccc(NC(=S)/C(C#N)=C2/Nc3ccccc3S2)cc1 | ? | ?
CCCCN1CC(C)(C)[C@H](CC(=O)NC)C1=O | -15% | -12%
CC(C)COC(=O)N(C)C[C@@H]1OCc2cnnn2CCCC(=O)N([C@@H](C)CO)C[C@H]1C | -23% | -8%
CSc1nc2ccc(NC(=O)c3ccc(=O)[nH]c3)cc2s1 | i | -17%
COc1ccc(NC(=O)C2c3ccccc3OCC(=O)N2CCc2ccccc2)cc1 (stereo unspecified) | i | 9%
COC(=O)CN1C(=O)[C@H]2[C@@H](/C=C/c3ccccc3)N3C(=O)CN(Cc4ccccn4)C(=O)[C@@]3(Cc3ccccc3)[C@H]2C1=O | i | -8%

Random excerpt: 2 compounds from above.
structure | Vaccinia mCherry | VACV Venus inh
O=C1Nc2ccccc2Oc2cc(Oc3ccc(Cl)cc3)ccc21 | -13% | -1%
CCN(CC(=O)Nc1ccccc1C(F)(F)F)C(=O)C1CC(=O)N(Cc2ccccc2)C1 (stereo unspecified) | -16% | -6%

The listing continues:
structure | Vaccinia mCherry | VACV Venus inh
CC(Sc1nnnn1C1CC1)C(=O)N1CC(=O)Nc2ccccc21 (stereo unspecified) | -16% | -9%
O=C(CCN1CCN(C(=O)c2ccccc2)CC1)c1ccc(Br)cc1 | -6% | 3%
Cc1ccc(-c2nc(SCC(=O)N(C)C3CCS(=O)(=O)C3)[nH]c2-c2ccc(C)cc2)cc1 (stereo unspecified) | -23% | -24%
O=C(/C=C/c1ccccc1)c1ccc(O[C@H]2OC(CO)C(O)C(O)C2O)cc1O (stereo partly specified) | -11% | -8%
CCOC(=O)c1nn(-c2ccc(F)cc2)c(C)c1C(C)=O | i | -6%
Cc1cc(C)cc(N=c2c([N+](=O)[O-])nn(-c3ccc(Cl)cc3)n2O)c1 | -24% | -4%
O=C(CCN1CCN(c2ccc(F)cc2)CC1)Nc1ccccc1F | . | -17%
Cc1c(C(=O)O)cnc2c([N+](=O)[O-])cnn12 | 8% | -4%
Cc1ccc(NC(=O)Cn2c(=O)n(CCCCCC(=O)NCc3ccc(F)cc3)c(=O)c3sccc32)c(C)c1 | -25% | -29%
Cc1ccc(Cl)cc1NC(=O)N1CCN(C)c2ncccc21 | -3% | 2%
CCON1C(=O)C(C)(C)N(OCC)C(=O)C1(C)C | -15% | 0%
COc1cc(C(=O)NNC(=O)CCOc2ccccc2C)cc(OC)c1OC | -19% | -12%

Part of the list above, as labelled records:
CCOC(=O)c1nn(-c2ccc(F)cc2)c(C)c1C(C)=O
  Vaccinia mCherry: i; VACV Venus inh: -6%
Cc1cc(C)cc(N=c2c([N+](=O)[O-])nn(-c3ccc(Cl)cc3)n2O)c1
  Vaccinia mCherry: -24%; VACV Venus inh: -4%
O=C(CCN1CCN(c2ccc(F)cc2)CC1)Nc1ccccc1F
  Vaccinia mCherry: .; VACV Venus inh: -17%

Further records:
structure | Vaccinia mCherry | VACV Venus inh
COC(=O)[C@H]1CCCN1C(=O)Nc1cccc(Oc2c(F)c(F)c(F)c(F)c2F)c1 | -17% | -16%
Nc1c(C(=O)OCC2CCCO2)c2nc3ccccc3nc2n1-c1ccc2c(c1)OCCO2 (stereo unspecified) | . | -10%
O=C1CC(N2CCN(c3ccc(F)cc3)CC2)C(=O)N1Cc1ccc(N2CCCC2=O)cc1 (stereo unspecified) | ? | ?
C=CCc1ccccc1OCC(O)CNC(=O)c1ccccc1C(=O)O (stereo unspecified) | -4% | -6%
C/C(=N\Nc1ccccn1)c1cccs1 | -5% | -5%
O=C(O)C1CCN(Cc2cccnc2)CC1 | -6% | 5%
C#CCn1cc2c(c1-c1ccccc1)c(=O)n(C)c(=O)n2C | -7% | -24%
COc1ccc(-c2cn3c(n2)sc2cc(C(=O)N4CCCCC4)ccc23)cc1 | -19% | -19%
CN(C)C(=O)Oc1cccc2c(OC(=O)N(C)C)cccc12 | -15% | -10%
Cc1ccsc1C(=O)N1CCN(S(=O)(=O)c2cccs2)CC1 | -22% | 6%
O=C(CSc1nnc(-c2c[nH]c3ccccc23)n1CC1CCCO1)Nc1ccc2c(c1)OCCO2 (stereo unspecified) | . | -4%
CCOC(=O)N1CCN(C(=O)CS(=O)Cc2nc(-c3cccc(C)c3)oc2C)CC1 (stereo unspecified) | i | -7%
O=C(O)C(Cc1ccccc1)N=C(NS(=O)(=O)c1ccccc1)c1ccccc1 (stereo unspecified) | i | 9%
C/C(CC(=O)Nc1ccccn1)=N\NC(=O)c1ccccc1O | 4µM* | -12%
CCC(NC(=O)COC(=O)C1CC2CCCC(C1)C2=O)c1ccc(Br)cc1 (stereo unspecified) | i | -8%
Cc1ccc(N2C(=S)SC3CS(=O)(=O)CC32)cc1 (stereo unspecified) | -11% | 5%
Cc1nn(CC(=O)N2c3ccccc3NC(=O)C2(C)C)c(C)c1[N+](=O)[O-] | -6% | -18%
CC(=O)c1cccc(NC(=O)C2=CC(c3ccco3)=NS(=O)(=O)N2C)c1 | -19%&-5% | -23%&-2%
O=c1[nH]c2ccccc2n1CCCOc1ccccc1 | -29% | ?
Cc1cccc(C(=O)Oc2ccccc2/C=N/Nc2ccc([N+](=O)[O-])cc2)c1 | -28% | -12%
Cc1ccc(NC(=O)Cn2cnc3c(oc4nc5c(cc43)COC(C)(C)C5)c2=O)cc1 | -4% | -10%
COc1cccc(CNCCOCCO)c1OC | . | -23%
O=C(COC(=O)c1ccccc1C(F)(F)F)NC(=O)NCc1ccco1 | -2% | -9%
CCOC(=O)C(NCc1ccco1)(NC(=O)c1ccc(OC)cc1)C(F)(F)F (stereo unspecified) | . | 18%

Further compounds
Each structure is followed by: Vaccinia mCherry	VACV Venus inh
C=CCN1C(=O)NC(=O)/C(=C/c2cnc(SC)nc2)C1=O
 : .	16%
CCN(CC)C(=O)C(=O)Nc1ccc(OCc2ccccc2)cc1
 : -2%	-3%
CCOC(=O)C1Nc2ccc(C(=O)O)cc2C2C=CCC12 (stereo unspecified)
 : i	-6%
O=C(CSc1nc(-c2ccccc2)cs1)Nc1cccc([N+](=O)[O-])c1
 : ?	?
O=C(NCCC1=CCCCC1)c1ccc(-n2cncn2)c([N+](=O)[O-])c1
 : i	-16%
COCCCNC(=O)/C(C#N)=C1\N=C(NC(=O)c2cccs2)c2ccccc21
 : -15%	1%
CN1CCN(C(c2ccccn2)c2cc(Cl)c3cccnc3c2O)CC1 (stereo unspecified)
 : -21%	-25%
O=C(CSc1nc2c([nH]c3ccccc32)c(=O)n1-c1ccc(F)cc1)NCc1ccc(F)cc1
 : -11%	-5%
Brc1ccc(C2=NC(Cc3ccccc3)CO2)cc1 (stereo unspecified)
 : -23%	-11%
COCC(=O)Nc1cc(C(=O)N2CCCOc3c(cccc3OC)C2)c2c(c1)nc(C1CCC1)n2C
 : -9%	-11%
COc1ccccc1C(C(=O)c1ccccc1)c1ccc(O)cc1 (stereo unspecified)
 : -22%	-16%
OCCNCc1cccc2ccccc12
 : -10%	0%
c1ccc(-n2c(-c3ccncc3)nnc2N2CCOCC2)cc1
 : -10%	-4%
Cn1c(Cc2ccccc2)nnc1SCCC(=O)Nc1ccccc1
 : .	-17%
O=C(CSc1nnc(CCCN2C(=O)c3cccc4cccc(c34)C2=O)n1-c1ccccc1)NCCCO
 : -4%	-17%
Cc1ccc(NC(=O)CSc2nnc([C@H](C)NC(=O)OC(C)(C)C)o2)c(C)c1
 : -6%[7.34 µM]	-24%[7.34 µM]
Nc1[nH]c(=S)nc2nc(-c3ccccc3)c(-c3ccccc3)nc12
 : -17%	-18%
COCCOC(=O)c1c(C)nc(SCC(=O)Nc2ccc(OC)cc2)c(C#N)c1-c1ccco1
 : -15%	-30%
COc1ccc(CNC(=O)C(C)NCc2ccc(S(N)(=O)=O)cc2)cc1 (stereo unspecified)
 : i	2%
O=C(NCC1CCCO1)c1ccc(OC2CCN(C(=O)C3CC3)CC2)cc1 (stereo unspecified)
 : -5%	-19%

2 neighbouring records from above, quoted:
Each structure is followed by: Vaccinia mCherry	VACV Venus inh
Cc1cc(C)cc(N=c2c([N+](=O)[O-])nn(-c3ccc(Cl)cc3)n2O)c1
 : -24%	-4%
O=C(CCN1CCN(c2ccc(F)cc2)CC1)Nc1ccccc1F
 : .	-17%

The list continues.
Each structure is followed by: Vaccinia mCherry	VACV Venus inh
CCN(CC(=O)Nc1cccc(C(C)=O)c1)S(=O)(=O)c1ccccc1
 : -1%	-14%
COc1ccc(C(=O)Nc2ccc3c(c2)N(C2CCCC2)C(=O)c2ccccc2S3)cc1OC
 : -8%	0%
O=C(NC(c1ccc(-c2ccccc2)cc1)c1cnccn1)C1CCN(Cc2ccc(Cl)c(Cl)c2)CC1 (stereo unspecified)
 : 4%	-20%
Cc1ccc(NC(=O)CSC(C)c2nc3ccccc3c(=O)[nH]2)cc1 (stereo unspecified)
 : -18%	-19%
O=C(NCCc1ccc(Cl)cc1)Nc1ccc(F)cc1
 : -16%	-8%
CCN1CCN(CCNC(=O)c2ccc3c(c2)N(Cc2cccc(Cl)c2)C(=O)c2ccccc2S3=O)CC1 (stereo unspecified)
 : -5%	-30%
CCOC(=O)[C@]12CCCC=C1N(Cc1ccco1)C(=O)[C@H](CC(=O)N1CCN(C(=O)c3ccco3)CC1)C2
 : -16%	-7%
N#Cc1ccc2c(=O)n(-c3ccccc3)sc2c1
 : -26%	-24%
Cn1c(-c2ccccc2)c[n+]2c1CCCCC2
 : -4%	-10%
CC1CC(C)CN(CCOc2cccc(Cl)c2Cl)C1 (stereo unspecified)
 : i	-27%
NS(=O)(=O)c1cccc(NC(=O)CC23CC4CC(CC(Br)(C4)C2)C3)c1
 : -5%	-4%
CCN(CC)CCNC(=O)Cn1ncc2c([nH]c3ccccc32)c1=O
 : ?	?
Cc1ccccc1CNC(=O)c1ccc(-n2c(C)cc3c2CCCC3)cc1
 : i	-19%
O=c1[nH]cnc2c1N=C(c1cccc([N+](=O)[O-])c1)CC(c1ccccc1)N2 (stereo unspecified)
 : ?	-20%
NC(=O)c1ncn([C@@H]2O[C@H](CNCc3ccccc3C#Cc3ccccc3)[C@@H](O)[C@H]2O)n1
 : ?	4%
Cc1ccc(S(=O)(=O)NCC(c2ccccc2)N2CCN(CCC#N)CC2)cc1 (stereo unspecified)
 : -17%	-9%
CCCCn1nnnc1C(c1ccccc1)N1CCN(c2ccc(C)cc2)CC1 (stereo unspecified)
 : i	7%
CC1(C)SC2C(NC(=O)C(NC(=O)N3CCNC3=O)c3ccccc3)C(=O)N2C1C(=O)O (stereo unspecified)
 : i	-14%
O=C1NC[C@@H](CCCCN2C[C@H](Cc3ccccc3)N(Cc3ccccc3)C(=O)C2=O)N(CCc2ccccc2)C1=O
 : 20%	12%
CCNC(=O)C1CCCN(C(=O)c2ccc(N(C)C)cc2)CC1 (stereo unspecified)
 : 19%	-2%
CCOC(=O)N1CCC2(O)CCCCC2C1c1ccc(F)cc1 (stereo unspecified)
 : .	-12%
Cc1ccc2c(c1)NC(c1cccnc1)=NC(c1ccc(F)cc1)=N2
 : 1%	-9%
O=S(=O)(Nc1nc2ccccc2nc1NCc1ccco1)c1ccc(Cl)cc1
 : -14%[1.46 µM]	?
COCCCNC(=S)N1CCN(C)CC1
 : -15%	-5%
O=C(COC(=O)C1C2CC3OC(=O)C1C3C2)Nc1cccc(C(F)(F)F)c1 (stereo unspecified)
 : i	2%
Cc1nc(C(=O)N2CCc3c([nH]c4ccccc34)C2c2ccccn2)cs1 (stereo unspecified)
 : ?	-4%
COc1ccc(S(=O)(=O)n2[nH]c(=O)c(CCO)c2C)c([N+](=O)[O-])c1
 : i	-16%
CN1CCN(S(=O)(=O)c2ccccc2)CC1
 : -6%	-9%&-10%
